VDR inhibitor = vitamin D3 receptor (human) inhibition; P11473; VDR-SRC2-3 peptide fluorescence polarization, 2 h; Potency, µM, for the others: max response, negative = inhibition, usual class: inhibitors; hit rate 0.93% among 400,000; AID 504847; active means well fitted inhibition curve with a large enough effect; inconclusive means small, poorly fitted or top-dose-only effect, or another doubt; inactive means no such curve, though single readings can be large or run the other way; further: series mostly up to about 120 µM
Target sequence (P11473 whole entry, looked up): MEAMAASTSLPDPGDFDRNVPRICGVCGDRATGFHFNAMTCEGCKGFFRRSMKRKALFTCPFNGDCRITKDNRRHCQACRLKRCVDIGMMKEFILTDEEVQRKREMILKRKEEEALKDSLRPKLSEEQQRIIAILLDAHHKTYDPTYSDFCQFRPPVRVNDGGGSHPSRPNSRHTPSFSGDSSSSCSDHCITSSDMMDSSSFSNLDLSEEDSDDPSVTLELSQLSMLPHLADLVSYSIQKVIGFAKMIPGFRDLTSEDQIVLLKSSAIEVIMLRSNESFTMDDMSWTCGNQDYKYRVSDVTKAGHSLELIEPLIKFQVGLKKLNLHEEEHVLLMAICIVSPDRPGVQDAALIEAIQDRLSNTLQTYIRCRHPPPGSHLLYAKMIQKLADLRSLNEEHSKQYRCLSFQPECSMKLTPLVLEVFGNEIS
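Measured by FP: displacement of SRC2-3 coactivator peptide from VDR by library compounds, following a two-hour ambient incubation.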
The depositor's hits bear a star; u = inconclusive; [ ] = another dose, or the depositor's remark. On the % scale 0 is the no-effect control and ±100 the full control effect; potency means the concentration at half of the fitted maximal effect.

The opening 7 records, ahead of the listing:
SMILES | VDR inhibitor
O=C(CN1C(=O)/C(=C/c2ccccc2F)Sc2ccccc21)NCCCN1CCOCC1 | -22.4%
O=C(CSc1nnnn1C1CC1)Nc1cc(S(=O)(=O)N2CCCC2)ccc1Cl | 7.9%
COc1ccc2[nH]c(=O)c(CN(Cc3cccnc3)C(=S)NCC3CCCO3)cc2c1 (stereo unspecified) | -15.0%
C/C(=N\NC(=O)c1ccoc1C)c1cccnc1 | 0.5%
COc1cc(OC)cc(OCC(O)Cn2cnc(-c3ccccc3)c2)c1 (stereo unspecified) | 0.3%
CCCc1nnc2n1N=C(c1ccc(OC)c(OC)c1)CS2 | 5.0%
COc1ccc(CCNc2nc(N3CCCCC3)nc(N3CCCCC3)n2)cc1OC | 6.2%

The listing, from the first entry:
SMILES | VDR inhibitor
O=C(CN1C(=O)/C(=C/c2ccccc2F)Sc2ccccc21)NCCCN1CCOCC1 | -22.4%
O=C(CSc1nnnn1C1CC1)Nc1cc(S(=O)(=O)N2CCCC2)ccc1Cl | 7.9%
COc1ccc2[nH]c(=O)c(CN(Cc3cccnc3)C(=S)NCC3CCCO3)cc2c1 (stereo unspecified) | -15.0%
C/C(=N\NC(=O)c1ccoc1C)c1cccnc1 | 0.5%
COc1cc(OC)cc(OCC(O)Cn2cnc(-c3ccccc3)c2)c1 (stereo unspecified) | 0.3%
CCCc1nnc2n1N=C(c1ccc(OC)c(OC)c1)CS2 | 5.0%
COc1ccc(CCNc2nc(N3CCCCC3)nc(N3CCCCC3)n2)cc1OC | 6.2%
CCOc1ccccc1N(CC(=O)NCCc1ccccc1)C(=O)CCC(=O)Nc1ccccn1 | 5.5%
CCCN(C(=O)c1cc(Cl)nc2ccccc12)C1CCS(=O)(=O)C1 (stereo unspecified) | -8.2%
Cc1cc(OCC(=O)Nc2ccc(S(=O)(=O)N3CCN(C)CC3)cc2)ccc1Br | -14.6%
CN(Cc1ccccc1F)C(=O)c1ccccc1Sc1ccccc1C#N | 8.4%
Cc1ccc(C(=O)c2ccccc2C(=O)OCC(=O)N2C(C)CCCC2C)cc1 (stereo unspecified) | 50.5%[activator]
COc1cc(/C=C2/SC(=S)N(CCC(=O)Nc3ccccc3)C2=O)cc(OC)c1OC | -0.9%
CCOc1ccc(S(=O)(=O)N(CC)CC(=O)N2CCOCC2)cc1C | 4.4%
Cc1ccc(S(=O)(=O)n2nc(-c3ccco3)nc2N)cc1 | 1.1%
O=C(CSc1nnc(-c2ccccn2)n1Cc1ccco1)c1ccccc1 | 0.3%
CC(=O)N1SC(N)=NC1c1ccccc1 (stereo unspecified) | -4.7%
COc1ccccc1CCNC(=O)C1(c2cccs2)CCOCC1 | 7.8%
COc1ccc([N+](=O)[O-])cc1NC(=O)Nc1ccc(OC)c(OC)c1 | 4.8%
COc1ccc(C(=O)/C=C/C(=O)N(Cc2ccccc2)C(C(=O)NC2CCCCC2)c2ccncc2)c(O)c1 (stereo unspecified) | -7.4%
Cc1nc2ccccn2c1-c1ccnn1S(=O)(=O)c1ccc(F)cc1 | -3.5%
O=C(NS(=O)(=O)Oc1cccc(F)c1)OC[C@@H]1CCCN2CCCCC12 (stereo partly specified) | 0.3%
Cc1ccc(NC(=O)c2cccc(-n3cnnn3)c2)cc1Cl | -9.2%
O=C(CSc1nnc(Cn2c(=O)sc3ccccc32)n1-c1ccccc1)N1CCCCCC1 | -6.1%
Cc1ccc(CN(C(=O)c2ccco2)C(C(=O)NC2CCCC2)c2ccc(N3CCOCC3)cc2)cc1 (stereo unspecified) | 4.1%
(listing goes on)
SMILES | VDR inhibitor
COc1ccc(C2CC(c3cccs3)=NN2C(=S)Nc2ccccc2)cc1OC (stereo unspecified) | -8.3%
COc1ccc(C(=O)Nc2nnc(Cc3ccccc3)s2)c(OC)c1 | -9.4%
CC1(C)CC(=O)C2=C(C1)NC(=O)CC2c1cccc(F)c1 (stereo unspecified) | 19.6%
COc1ccc(CN2CCC(=O)c3ccccc3S2(=O)=O)cc1 | 15.1%
CCOC(=O)c1ccc(NC(=O)C2(c3ccccc3)CCCC2)cc1 | -2.0%
CCOC(=O)c1sc(N2N=C(C)/C(=C\c3ccc(OCC(=O)OC)cc3)C2=O)nc1C | u
Cc1cc(NC(=O)c2cccs2)ncc1NC(=O)c1cccc(F)c1 | -2.1%
Cc1c(C(=O)O)sc(=S)n1CCOc1ccccc1 | -14.4%
Cc1noc(C)c1-c1nnc(-c2ccc(C(F)(F)F)cc2)o1 | -4.7%
CCCCCCc1c(C)nc(-n2[nH]c(C)c(CCO)c2=O)[nH]c1=O | 0.7%
CN(Cc1ccccc1)C(=O)c1cc(S(=O)(=O)N2CCOCC2)cn1C | 4.6%
O=C(Nc1nnc(-c2ccccc2)o1)C1CCCN1S(=O)(=O)c1cccs1 (stereo unspecified) | 2.5%
O=C(CSc1nc2ccccc2n1CC(=O)N1CCCC1)Nc1ccc2c(c1)OCO2 | 7.8%
COCCN(C(=O)COC(=O)CC1CCCCC1)c1c(N)n(Cc2ccccc2)c(=O)[nH]c1=O | 0.0%
COc1ccc(N(C(C)C(=O)N/N=C(\C)C(C)(C)C)S(C)(=O)=O)cc1 (stereo unspecified) | -4.8%
COc1cc([N+](=O)[O-])ccc1N/C=C/C(=O)c1cccs1 | 0.9%
Cc1ccc(CNC(=O)c2cc3c(=O)n(Cc4ccco4)ccc3nc2C)cc1 | 2.3%
Cc1cnc(C(=O)OCC(=O)c2cccc3ccccc23)cn1 | 5.7%
CS(=O)(=O)NCCNc1ccc(C(F)(F)F)cc1[N+](=O)[O-] | -4.0%
COc1ccccc1-c1nc(NCc2cnc(C)cn2)c2ccccc2n1 | u
O=C(NCCc1ccccc1F)/C(=C/c1cccnc1)NC(=O)c1ccccc1 | 5.1%
Cc1ccc(C(C)C)c(OCC(=O)N2CCOCC2)c1 | 2.3%
Cc1ccc(C(=O)NNC(=O)c2ccc3ccccc3c2O)cc1 | 8.4%
COC(=O)C1CCN(C2=C(NS(=O)(=O)c3ccc(Cl)cc3)C(=O)c3ccccc3C2=O)CC1 | -20.0%
C=CCc1ccccc1OCC(O)CN1CCN(c2ccccc2F)CC1 (stereo unspecified) | -17.3%
The results go on:
SMILES | VDR inhibitor
Cc1ccc(-n2c(C)cc(C)c(C#N)c2=O)cc1Cl | -8.5%
Cc1cc(=O)[nH]c(-n2nc(C)cc2C)n1 | -7.0%
Cc1ccc(-n2nc(C)c3c2NC2=C(C(=O)CC(C)(C)C2)C3c2ccccc2OCC(=O)O)cc1 (stereo unspecified) | -27.4%
CCCCC(=O)OC1=C(C(=O)c2ccccc2)N(CCC)S(=O)(=O)c2ccccc21 | -22.7%
COCCNC(=O)CCCn1c(=O)c2cc(OC)c(OC)cc2n(CC(=O)c2cccc(OC)c2)c1=O | -8.7%
CCNc1ccc(C2(O)C(=O)c3ccccc3C2=O)cc1 | 11.9%
O=C(c1cccnc1)N1C2C=CC(C2)C1(C(F)(F)F)C(F)(F)F (stereo unspecified) | -6.0%
Cc1cccc(NC(=S)N(CCN(C)C)Cc2cc3cccc(C)c3[nH]c2=O)c1 | -0.5%
Cc1ccc(N/C=C/C(=O)C(C)(C)C)c(O)c1 | 2.7%
COc1cc(/C=C/C(=O)OCC(=O)c2c(N)n(C)c(=O)n(C)c2=O)ccc1OC(F)F | -3.5%
COc1ccc(N2CCN(c3nc4ccccc4n4c(C)nnc34)CC2)cc1 | 6.3%
COc1ccc(S(=O)(=O)N(C)CC(=O)NCc2ccccn2)cc1 | -2.2%
O=C(/C=C/c1cccnc1)/C=C/c1cccnc1 | 12.6µM*
CCOc1ccccc1NC(=O)C1CCN(S(=O)(=O)c2ccc3[nH]c(=O)ccc3c2)CC1 | -7.8%
O=C1CCc2cc(S(=O)(=O)NCCc3ccc(Cl)cc3)cc3c2N1CC3 | -20.9%
CCCCN(Cc1ccco1)C(=O)C1CCCN(c2ncnc3c2nc2n3CCCCC2)C1 (stereo unspecified) | -6.4%
COc1ccc(C(=S)Nc2ccccc2)cc1 | 12.6%
Cn1c(CC(=O)Nc2ccc(F)cc2)nnc1SCC(=O)Nc1nncs1 | 12.9%
O=C(N/N=C/C1C(c2ccccc2)C1(Cl)Cl)c1cccc(Cl)c1 (stereo unspecified) | -7.8%
Cc1cc(SCC(=O)NC2CCCC2)nc2ccccc12 | -9.2%
O=C(Nc1nnc(CSCc2ccc(F)cc2)s1)c1ccc([N+](=O)[O-])cc1 | -21.7%
O=S(=O)(c1cccs1)N1CCN(CCOc2ccc(Cl)cc2)CC1 | -3.2%
CCN1CCN(C(=O)CN(CC)S(=O)(=O)c2ccc3ccccc3c2)CC1 | -6.2%
COC(=O)c1cn(C)c2ccc(S(=O)(=O)N3CCCC3)cc2c1=O | 7.3%
CCC(=O)Nc1c2c(nn1-c1ccc(OC)cc1)CSC2 | 27.6%

Three compounds already listed, ordered by number of heavy atoms, largest number first.
SMILES | VDR inhibitor
CCCCC(=O)OC1=C(C(=O)c2ccccc2)N(CCC)S(=O)(=O)c2ccccc21 | -22.7%
Cc1cccc(NC(=S)N(CCN(C)C)Cc2cc3cccc(C)c3[nH]c2=O)c1 | -0.5%
O=S(=O)(c1cccs1)N1CCN(CCOc2ccc(Cl)cc2)CC1 | -3.2%

Continuation.
SMILES | VDR inhibitor
CN1/C(=C/C(=O)COC(=O)CN2C(=O)C3CC=CCC3C2=O)C(C)(C)c2ccccc21 (stereo unspecified) | 7.2%
C/C(=N\Nc1cc(Cl)nc(C)n1)c1ccccc1 | -4.6%
COc1cccc(Nc2nc3ccccc3n3nnnc23)c1 | -4.2%
CC1=NN(c2ccc(C)cc2)C(=O)/C1=C\c1ccc(Br)s1 | -20.8%
COc1ccc(NC(=O)C2CCCN2S(=O)(=O)c2ccc3c(c2)CCCC(=O)N3)cc1Cl (stereo unspecified) | 2.9%
Cn1c(=O)[nH]c(=O)c2cc(C(=O)c3cc(F)ccc3O)cnc21 | -1.4%
CC(=O)N1CCOCCOCCN(C(C)=O)CCOCCOCC1 | -4.2%
CCOC(=O)Cc1csc(NC(=O)Cc2ccc(Br)cc2)n1 | -2.6%
CCOc1ccccc1NC(=O)c1nc2nc(C)cc(C(F)F)n2n1 | 7.6%
Cc1ccc(OCCSc2nnc(-c3ccncc3)n2C)cc1 | -1.0%
O=C(O)c1ccc(NCc2cccnc2)c([N+](=O)[O-])c1 | 6.3%
CC1(C)CC(=O)C=C(NCc2cccc(C(F)(F)F)c2)C1 | -6.2%
CCc1cc2c3c(c(=O)oc2cc1OCC(=O)OC)CCCC3 | -5.3%
Cc1nnnn1CC(=O)Nc1cccc([N+](=O)[O-])c1 | u
COc1cc(OC)c(C(=O)Nc2cc(Cl)ccc2-n2cncn2)cc1OC | -5.1%
Cc1ccc(CNC(=O)N[C@@H](Cc2ccccc2)C(=O)O)cc1 | -5.2%
Cc1ccccc1-c1ccc2ncnc(N3CCN(C)CC3)c2c1 | -7.6%
Nc1c(-c2ccccc2)nc(Cl)nc1-c1ccccc1 | -4.2%
Cc1ccc(CN2CC(C(=O)NC(c3nc4ccccc4[nH]3)C(C)C)CC2=O)cc1 (stereo unspecified) | -25.3%
O=C(COC(=O)c1ccc(Br)o1)Nc1nc2c(F)c(F)c(F)cc2s1 | -2.9%
Cc1cc(C(=O)NCCCn2ccnc2)sc1-c1ccccc1 | 12.7%
CC(C)[C@H](NC(=O)c1ccccc1)C(=O)OCC(=O)N1CCCc2ccccc21 | -8.8%
CC(=O)NCCc1ccc(S(=O)(=O)Nc2ccc(NC(=O)c3ccc(F)cc3)cc2)cc1 | 12.0%
CC(C)[C@H](NC(=O)c1ccccc1F)C(=O)OCC(=O)NC(=O)NC1CCCCC1 | -17.4%
CCCCCn1c(=O)[nH]c2cc(C(=O)NCCCN3CCCCC3CC)ccc2c1=O (stereo unspecified) | -1.3%
The results go on:
SMILES | VDR inhibitor
CCOc1cccc(CN2CCN(Cc3ccc(C)o3)C(CCO)C2)c1O (stereo unspecified) | -6.5%
COc1ccc(OC)c(NC(=O)c2ccccc2SC)c1 | -8.7%
CC1=CC(C)(C)C(C(=O)O)C(C(=O)O)C1 (stereo unspecified) | -12.5%
Cc1ccc(Cl)cc1N1CCN(C(=O)COc2cc(=O)n(C)c3ccccc23)CC1 | -0.4%
COc1ccc(C(=O)Nc2cc3c(cc2C#N)OCO3)cc1S(=O)(=O)N1CCN(C)CC1 | -1.1%
COc1ccc(C(=O)NC2CCCCCC2)cc1S(=O)(=O)Nc1ccc(Br)cc1 | -8.2%
COC(=O)c1ccccc1NC(=O)c1ccc(COc2ccc(C)c(C)c2)o1 | 8.4%
COc1cccc(CN(Cc2cccnc2)S(=O)(=O)c2ccc(-n3cnnn3)c(C)c2)c1OC | -1.9%
Cc1nn(-c2ccccc2)c2nc(N)c(C#N)c(-c3ccc(O)c(O)c3)c12 | 8.2%
COc1ccc(OCCNS(=O)(=O)c2cccc([N+](=O)[O-])c2)cc1 | -5.9%
C#CCn1cc(/C=C2\NC(=O)NC2=O)c2ccccc21 | 3.9%
COc1ccc(C(=O)N2CCC3(CC2)CN(c2cccc(-c4ccccc4)c2)C3)cc1 | -8.6%
N#CC(CC(=O)c1ccc(Cl)cc1)c1ccccc1 (stereo unspecified) | -13.2%
COc1ccc(C2CC(=O)C(C=NCCN3CCN(C(=S)Nc4ccccc4)CC3)=C(O)C2)cc1 (stereo unspecified) | 13.1%
CC(C)(C)S(=O)(=O)c1cnc2c(S(=O)(=O)c3ccccc3)cnn2c1N | -8.0%
Cc1cc(=O)n2nc(N3CCCC(C(=O)N4CCN(C)CC4)C3)sc2n1 (stereo unspecified) | -8.6%
FC1(F)C(F)(F)C(F)(F)C2(F)C(F)(F)C(F)(F)C(F)(F)C(F)(F)C2(F)C1(F)F (stereo unspecified) | 0.2%
CC(C)COc1ccc(C(=O)OCC(=O)NCCC2=CCCCC2)cc1 | -7.6%
Oc1cccc(-c2nc(-c3cccs3)c(-c3cccs3)[nH]2)c1 | 0.9%
COc1cc(CNCCCN2CCOCC2)c(Br)cc1OCC(=O)Nc1ccccc1C | -2.2%
Cc1cc(C)c(C)c(S(=O)(=O)NCC(=O)Nc2ccc(F)cc2)c1C | -1.7%
COc1ccc(OC)c(C(=O)COC(=O)c2ccc([N+](=O)[O-])o2)c1 | -13.9%

Screening data (PubChem)

An excerpt; the hit share may differ from the screen's.
